# Screening results (PubChem)
# MARV entry inh – blocks Marburg virus binding to or entry into cells. 300,000 compounds, 1.8% hits. Potency, µM (top dose mostly 37.8 µM), without a hit: at the top dose activity change, negative = inhibition, actives largely listed as inhibitors. Marburg virus pseudotyped entry inhibition, cell reporter; control for the full effect not named in the record; about a third of the inactives were read at about 46 µM. AID 540276; active = well fitted inhibition curve with a large enough effect; inconclusive = small, poorly fitted or top-dose-only effect, or effect the other way; inactive = flat fitted curve, though single readings scatter; tested in HEK293 cells; about a fifth of its hits are not listed in these tables; note: % is set by controls: 0 for no effect and ±100 for the full control effect; luciferase read-out
# RE007 growth inh – less growth of the S. pombe RE007 Vpr strain; S. pombe RE007 Vpr strain, BacTiter-Glo ATP luminescence, 24 h; control for the full effect not named in the record; Potency, µM (top dose mostly 92.2 µM), for the others: at the top dose activity change, negative = less growth; 360,000 compounds, 0.21% hits; active = well fitted falling curve with a large enough effect; inconclusive = small, poorly fitted or top-dose-only effect; inactive = no such curve, though single readings can be large or run the other way;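 note: % is set by controls: 0 for no effect and ±100 for the full control effect; nearly all actives have a fitted effect of over 50% in size; the assay follows cell death caused by Vpr and the record does not say whether a fall means rescue or toxicity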
#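 Fission yeast RE007 carrying one integrated HIV-1 vpr copy, seeded at OD 0.01 in PMG+AL medium with 23 nL pinned compound. Grown 24 h at 30 degrees; viability read by BacTiter-Glo luminescence after 5 min.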
# SARS PLpro yeast – inhibitors of SARS-CoV papain-like protease in yeast; S. cerevisiae expressing SARS-CoV PLpro, growth rescue; control for the full effect not named in the record; Potency, µM (doses to about 32.9 µM), inactives show top-dose activity, positive = growth rescue; 330,000 compounds, 0.19% hits; AID 485353; note: 0% is about no effect; nearly all actives have a fitted effect of over 55% in size; growth read by luminescence after 48 h
# Cruzain inh noDet – inhibitors of Trypanosoma cruzi cruzain without detergent; P25779; purified cruzain, Z-FR-AMC fluorescence, no detergent; Potency, µM, for inactives: max response, negative = inhibition, hits mostly inhibitors; 200,000 compounds, 2.3% hits; AID 1476; active = well fitted curve in the direction sought with a large enough effect; inconclusive = small, poorly fitted or top-dose-only effect, or another doubt; inactive = no such curve, though single readings can be large; an effect the other way counts as inactive or inconclusive;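 note: plate controls were enzyme without inhibitor for no effect and buffer without enzyme for full effect; nearly all actives have a fitted effect of over 40% in size; top concentration of the series not given in the record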
# Target sequence (P25779 123-467 limits assumed): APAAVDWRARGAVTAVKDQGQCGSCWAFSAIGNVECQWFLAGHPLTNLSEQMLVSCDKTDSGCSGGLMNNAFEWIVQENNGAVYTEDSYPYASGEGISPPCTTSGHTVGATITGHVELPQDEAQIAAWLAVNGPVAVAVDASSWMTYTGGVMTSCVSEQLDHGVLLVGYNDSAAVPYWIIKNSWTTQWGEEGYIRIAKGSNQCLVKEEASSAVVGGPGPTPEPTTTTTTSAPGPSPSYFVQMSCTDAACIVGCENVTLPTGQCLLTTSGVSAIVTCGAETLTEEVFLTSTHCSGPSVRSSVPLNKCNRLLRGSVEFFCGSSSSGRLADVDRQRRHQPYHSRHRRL
#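 Purified cruzain at 1.5 nM, pre-incubated 15 min with compound at room temperature in 100 mM sodium acetate pH 5.5, 5 mM DTT, 0.00005% Triton X-100. Reaction started with 2 uM Z-FR-AMC; AMC fluorescence increase over 60 s gives rate.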
# Cruzain Triton – inhibitors of Trypanosoma cruzi cruzain with detergent; 200,000 compounds, 0.43% hits; purified cruzain, Z-FR-AMC fluorescence, 0.01% Triton; Potency, µM, for the others: max response, negative = inhibition, usual class: inhibitors; AID 1478; P25779; active = well fitted curve in the direction sought with a large enough effect; inconclusive = small, poorly fitted or top-dose-only effect, or another doubt; inactive = no such curve, though single readings can be large; an effect the other way counts as inactive or inconclusive;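 note: plate controls were neutral wells for no effect and buffer without enzyme for full effect; nearly all actives have a fitted effect of over 40% in size; top concentration of the series not given in the record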
#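 Enzyme 1.5 nM, Z-FR-AMC 2 uM, NaOAc 100 mM pH 5.5, DTT 5 mM, Triton X-100 0.01%; 15 min RT compound preincubation; kinetic ex360/em450, 60 s delta.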
# NS1 inh – influenza NS1 inhibition; S. cerevisiae slowed by influenza A NS1, growth recovery by OD600; Potency, µM (top dose mostly 46.1 µM), for the others: at the highest dose activity, positive = more growth; 270,000 compounds, 0.4% hits; note: actives are rising curves; nearly all actives have a fitted effect of over 50% in size
#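 Read-out: OD600 growth recovery of NS1-expressing budding yeast. Cells grown overnight at 30C in -URA glucose medium, washed, resuspended and diluted 1:100 in 2% galactose assay medium, pH 6.0. Same strain lacking NS1 served as positive control.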
# Lassa entry inh – inhibitors of Lassa virus binding or cell entry. Lassa virus pseudotype entry inhibition, cell reporter; control for the full effect not named in the record. 300,000 compounds, 1.2% hits. Potency, µM (top dose mostly 37.9 µM), for inactives: top-dose activity change, negative = inhibition, usual class: inhibitors; active means well fitted inhibition curve with a large enough effect; inconclusive means small, poorly fitted or top-dose-only effect, or effect the other way; inactive means flat fitted curve, though single readings scatter; tested in HEK293 cells; note: % is set by controls: 0 for no effect and ±100 for the full control effect; nearly all actives have a fitted effect of over 50% in size; luciferase read-out
# 2A StopGo – lowers the luciferase signal of an FMDV 2A StopGo reporter; human cells with a luciferase reporter of 2A StopGo recoding; control for the full effect not named in the record; AID 1159524; Potency, µM (highest dose often 57.9 µM), without a hit: at the highest dose signal change, negative = less light; 410,000 compounds, 1.2% hits; active = well fitted falling curve with a large enough effect; inconclusive = small, poorly fitted or top-dose-only effect; inactive = no such curve, though single readings can be large or run the other way; tested in HEK293T cells; note: % is set by controls: 0 for no effect and ±100 for the full control effect; nearly all actives have a fitted effect of over 45% in size; luciferase light after 4 h
# Numbers without * were called inactive; ? = inconclusive; / = no result given; [ ] = remark or other dose. Unless noted, calls come from the whole dose curve; as a rule, active means well fitted rising curve with a large enough effect; inconclusive means small, poorly fitted or top-dose-only effect; inactive means no such curve, though single readings can be large or run the other way. Potency is the fitted concentration of half-maximal effect.
SMILES,MARV entry inh,RE007 growth inh,SARS PLpro yeast,Cruzain inh noDet,Cruzain Triton,NS1 inh,Lassa entry inh,2A StopGo
O=C1C2C3C=CC(C3)C2C(=O)N1CCCCCCN1C(=O)C2C3C=CC(C3)C2C1=O (centres undefined),13%[46.1 µM],-8%,0%,/,/,-2%,?,?
Cc1ccccc1OCCCC(=O)NC1CCCCC1,2%,23%,-4%,/,/,-8%,15%,44%[activator]
N#C/C(=C\c1cccs1)C(=O)N1CCOCC1,23%,1%,0%,/,/,1%,10%,2%
COc1ccc(/C=C2/SC(=S)N(NS(=O)(=O)c3ccccc3)C2=O)cc1,4%[46.1 µM],?,0%,/,/,-16%,10%,23%
CC1C(=O)N2CCCc3cc(S(=O)(=O)NCc4ccc(F)cc4)cc1c32 (centres undefined),8%[46.1 µM],-8%,2%,/,/,/,-17%,25%
Cc1ccc(NC(=O)CCNC(=O)c2ccc([N+](=O)[O-])cc2)cc1S(=O)(=O)N(C)C,10µM*,1%,-2%,/,/,/,?,28µM*
Cc1ccc(S(=O)(=O)N2CCCCC2)cc1NC(=O)COc1ccccc1F,-15%[46.1 µM],-9%,0%,/,/,/,-24%[46.1 µM],-28%
CC(=O)N/C(=C\c1ccccc1)C(=O)OCC(=O)Nc1cc(S(=O)(=O)N(C)C)ccc1C,-15%,-18%,-1%,/,/,/,3%,?
Cc1cc(Cl)ccc1NC(=O)CSc1nnc(Cc2cccs2)n1Cc1ccco1,?,16%,-1%,0%,-4.6%,-75%,1%,-23%
O=C(N/N=C/C=C/c1ccccc1)C1CC1(c1ccccc1)c1ccccc1 (centres undefined),-16%,-1%,4%,-6%,-3.5%,8%,?,-17%
CCCCOc1ccc(OCCNC(=O)C2CCCN2C(=O)Nc2ccccc2)cc1 (centres undefined),-8%[46.1 µM],6%,0%,/,/,-7%,?,7%
CCCC1=C(C(=O)OCC)C(c2ccc(N(C)C)cc2)n2ncnc2N1 (centres undefined),-28%,-11%,-4%,-8%,0.0%,-7%,-13%,-8%
CCOC(=O)c1ccc2nc(C)c(CCC(C)=O)c(Cl)c2c1,2%,-25%,-3%,?,2.6%,-20%,?,45%[activator]
CCN(CC)C1=NS(=O)(=O)c2cc([N+](=O)[O-])ccc21,?,-4%,1%,/,/,/,-23%,-9%
Cc1c(C(=O)N/N=C/c2cccs2)nnn1-c1nonc1N,?,-18%,4%,/,/,-9%,?,0%
O=C(O)c1cc(S(=O)(=O)N(Cc2ccccc2)c2ccccc2Cl)ccc1Cl,/,-7%,3%,/,/,9%,/,-14%
CSCCC(NC(=O)COc1ccccc1)C(=O)OCCOc1ccc(Br)cc1 (centres undefined),?,-23%,/,/,/,/,-18%,-16%
NS(=O)(=O)c1cc(C(=O)OCC(=O)Nc2ccc3c(c2)OCO3)ccc1Cl,-16%,1%,1%,/,/,/,-1%,-7%
CCOc1ccc(S(=O)(=O)N2CCCC(C(=O)NCc3ccccc3)C2)cc1 (centres undefined),-2%,5%,3%,/,/,-1%,12%,-11%
CC1Cc2ccccc2N1CC(=O)NC(c1ccccc1)c1ccccc1 (centres undefined),-3%[46.1 µM],10%,0%,-3%,-9.6%,5%,-2%,-12%
O=C(O)C1CC=CCC1C(=O)Nc1cc(Cl)ccc1Cl (centres undefined),?,1%,-18%,-12%,-0.6%,-6%,2%,-10%
CCCC[N+](C)(C)CCC(=O)NC(C)(C)CS(=O)(=O)[O-],1%[46.1 µM],17%,-2%,3%,7.8%,1%,-9%,-4%
Nc1[nH]c(N=NC(=O)c2ccccc2)c2ccccc12,?,-15%,1%,-8%,-15%,8%,?,22%
CN(C)c1ccc(C(=O)NN2C(=O)c3ccccc3C2=O)cc1,?,16%,0%,/,/,/,23%,40%[activator]
COC(=O)c1sccc1NC(=O)Cn1nnc(-c2ccc(C)cc2)n1,-2%,3%,2%,3%,4.0%,-21%,4%,4%
COCCn1c(=NC(=O)c2cc(Cl)sc2Cl)sc2cc(S(N)(=O)=O)ccc21,?,7%,-28%,?,-2.9%,4%,0%,-28%
CC(=O)N1CCCC1c1nc2ccccc2n1Cc1ccccc1C (centres undefined),?,/,/,-3%,-10%,/,?,-4%
O=C(NCc1ccc(F)cc1)c1cnc(-c2ccccn2)nc1C(F)(F)F,10%[46.1 µM],-14%,-12%,16%,-0.5%,-1%,3%,-10%
O=C(NNc1cc(Cl)cc(Cl)c1)c1c(F)cccc1Cl,-28%,0%,-16%,/,/,-35%,?,-10%
Cc1cccc(-c2nc3ccccc3c(=O)n2NC(=O)Cc2ccc(Cl)cc2)c1,1%,11%,-3%,4%,-3.8%,3%,-6%,-4%
CCSC1OC(C(COC(C)=O)OC(C)=O)C(OC(C)=O)C1NC(C)=S (centres undefined),2%,12%,/,/,/,/,0%,-22%
CCOC(=O)c1ccccc1NC(=O)CN1C(=O)c2ccccc2S1(=O)=O,13%,-12%,-1%,-11%,-3.7%,3%,0%,/
CC(C)NS(=O)(=O)c1ccc(OCC(=O)NCc2ccco2)cc1,10%[46.1 µM],-6%,0%,/,/,2%,3%,16%
O=[N+]([O-])c1cccc(OCCCN2CCC(Cc3ccccc3)CC2)c1,?,?,/,/,/,/,-10%[46.1 µM],-19%
CCOc1ccccc1NC(=O)CSc1nnc(CNC(=O)c2ccccc2F)o1,/,-3%,5%,/,/,-11%,-8%[46.1 µM],-6%
CS(=O)(=O)NNC(=O)CN1C(=O)C2C3C=CC(C3)C2C1=O (centres undefined),-22%[46.1 µM],-1%,1%,/,/,/,18%,3%
COC(=O)c1cc2ccccn2c2c(C(=O)OC)c(C(=O)OC)cc1-2,?,2%,15%,7%,0.8%,-1%,-28%,?
N=c1c2c(ncn1Cc1ccco1)Oc1cc(O)ccc1C2c1ccccc1 (centres undefined),/,-15%,1%,/,/,8%,/,-21%
CCCOc1ccc(C(=O)Nc2ccc(NC(=O)c3cccc(Cl)c3)cc2)cc1,/,/,/,8%,-1.9%,/,5%[46.1 µM],-13%
O=C(O)C1CCN(c2c([N+](=O)[O-])cc(C(F)(F)F)cc2[N+](=O)[O-])CC1,-4%,0%,-7%,0%,2.3%,-50%,-3%,6%
O=C(COc1ccccc1)Nc1nnc(-c2ccc(F)cc2)o1,0%[46.1 µM],-16%,-11%,/,/,-66%,18%[46.1 µM],-7%
Clc1ccc(CNc2cnccn2)cc1Cl,6%,28%,17%,/,/,-41%,8%,-10%
COc1cccc(N2C(=O)Nc3ccc(Br)cc3C2(O)C(=O)NCCN(C)C)c1 (centres undefined),/,9%,-1%,/,/,-2%,/,7%
COc1ccc(/C(N)=N/OC(=O)C2CCCCC2)cc1,/,-3%,0%,/,/,15%,/,8%
Cc1ccc(OCc2nc(-c3ccc(C(=O)N4CCN(c5ccccc5)CC4)cc3)oc2C)cc1,/,/,/,-2%,-1.2%,/,19%[46.1 µM],-2%
CCOc1ccc(C2c3c(oc4ccccc4c3=O)C(=O)N2c2ccc(C)cn2)cc1OC (centres undefined),/,0%,4%,?,-2.7%,-33%,/,-17%
COc1ccccc1N(CC(=O)N1CCCCC1)S(=O)(=O)c1ccccc1,7%,2%,-2%,-3%,-8.4%,-13%,0%,71%[activator]
O=C1NC(=O)C(C/C=C/c2ccccc2)C(=O)N1,5%,-23%,4%,-6%,1.8%,8%,3%,-1%
Cc1cc(Oc2ccc(N)cn2)cc(C)c1Cl,?,28%,-1%,/,/,0%,-6%[46.1 µM],-18%
CCCn1c(SCC(=O)Nc2ccc3c(c2)OCCO3)n[nH]c1=O,7%,3%,-1%,/,/,/,9%,0%
O=c1c2ccccc2cnn1Cc1n[nH]c(=S)n1C1CC2CCC1C2 (centres undefined),-10%,12%,0%,/,/,-9%,-6%,?
CC1CCC2C(=O)N(c3ccc(NC4CCN(Cc5ccccc5)CC4)c([N+](=O)[O-])c3)C(=O)C2C1 (centres undefined),0%,-1%,0%,/,/,/,/,-24%
O=C1NCCN/C1=C\C(=O)c1ccc(Br)cc1,/,2%,-3%,/,/,-31%,/,0%
O=C(NCc1nc2ccccc2n1Cc1ccccc1Cl)c1ccccc1,?,/,/,4%,-8.5%,/,-2%[46.1 µM],-8%
CC(C)CC(NC(=O)OC(C)(C)C)c1cn([C@@H](CCCCNC(=O)OC(C)(C)C)C(=O)N2CCN(C(=O)OC(C)(C)C)CC2)nn1 (some centres undefined),/,-6%,1%,/,/,8%,/,?
COc1ccc(C(=O)OCC(=O)Nc2ccc(F)c(F)c2F)cc1OC,-16%[46.1 µM],-7%,-5%,-11%,0.3%,5%,13%,-3%
COCCN1CC(CNC(=O)c2cc(COc3ccccc3SC)on2)CC1=O (centres undefined),18%,-9%,3%,/,/,-6%,12%,13%
CCc1cc(C(=O)OC)c(N2C(=O)C3C4C=CC(C4)C3C2=O)s1 (centres undefined),-15%,-3%,1%,-11%,-1.3%,-6%,29%[14.3 µM],3%
NC(=O)CSc1nc2ccc(NC(=O)COc3ccccc3Cl)cc2s1,0%[46.1 µM],/,/,-7%,-11%,/,11%[46.1 µM],-19%
COC(=O)c1ccc(-n2c(C)ccc2-c2ccccc2)cc1,-15%,-14%,-44%,0%,-4.3%,-34%,-12%,-3%
CC(C)c1ccc2c(c1)NC(c1ccc(F)cc1)=NC(c1cccs1)=N2,-54%[46.1 µM],/,/,-18%,-7.7%,/,22%[46.1 µM],24%
O=C(O)CCC(=O)N1N=C(c2ccc(Br)cc2)CC1c1cccc(Br)c1 (centres undefined),-6%[46.1 µM],5%,2%,/,/,?,-5%[46.1 µM],-13%
COc1cc(OC)cc(C(=O)Nc2ccc3nc4c(c(Nc5ccc(OC)c(OC)c5)c3c2)CCCC4)c1,2.5µM*,/,/,2%,3.3%,/,?,?
